HIV Env fusion = inhibitors of HIV Env-mediated cell fusion; HeLa-JRFL Env/CEM21 cell fusion, luciferase; inhibition, % at 12.3 µM; 360,000 compounds, 1.1% hits; AID 651610;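 active = mean replicate inhibition score of at least 50 and every replicate individually at or above 50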;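 note: 0% = plate neutral controls and 100% = maraviroc near 300 nM; one replicate is shown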
UUG fidelity = alters start codon recognition fidelity in yeast; 350,000 compounds, 0.13% hits; S. cerevisiae UUG-firefly luciferase reporter, luminescence/redox ratio; activity score, % at 18.7 µM;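 active = replicate mean at a twofold rise or more, about +100% in these data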;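 note: firefly luciferase made from a UUG start codon reports start codon fidelity; reporter light over untreated wells divided by growth signal over untreated wells; some hits fall short of that in this replicate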
Active calls of the source: *; [ ] = another dose, or the depositor's remark. The list is partial (hit frequency here may not be typical).

| HIV Env fusion | UUG fidelity | molecule |
| --- | --- | --- |
| 13.3[16.7 µM] | 6.5 | COc1ccc(NC(=O)N(C)C[C@@H]2Oc3ccc(NC(=O)Nc4ccc5c(c4)OCO5)cc3CC(=O)N([C@H](C)CO)C[C@@H]2C)cc1 |
| 5.5[16.7 µM] | 4.4 | CCCC(=O)Nc1ccc2c(c1)C(=O)N(C)[C@@H]1CC[C@H](CC(=O)NC3CCCC3)O[C@@H]1CO2 |
| -18.2[16.7 µM] | -0.9 | Cc1ccc(S(=O)(=O)N(C)C[C@H]2OCCCC[C@@H](C)Oc3ccc(NC(=O)CCCN(C)C)cc3C(=O)N([C@@H](C)CO)C[C@@H]2C)cc1 |
| 0.2[16.7 µM] | -8.0 | O=C1O[C@@H](c2ccccc2)[C@@H](c2ccccc2)N2[C@@H](c3ccc(OCCO)cc3)[C@]3(C(=O)Nc4ccc(C#CC5=CCCCC5)cc43)[C@@H](C(=O)N3CCCCCCC3)[C@H]12 |
| -15.8[16.7 µM] | 6.3 | O=C(C[C@@H]1C=C[C@@H](NC(=O)c2ccncc2)[C@H](CO)O1)NCCc1ccncc1 |
| -6.3[16.7 µM] | 4.3 | CCS(=O)(=O)NCC[C@@H]1CC[C@@H](NS(=O)(=O)c2cccc(F)c2)[C@@H](CO)O1 |
| 4.9[16.7 µM] | 10.7 | C[C@@H]1CN([C@H](C)CO)C(=O)c2cc(NS(C)(=O)=O)ccc2O[C@H]1CN(C)Cc1ccc(Cl)c(Cl)c1 |
| 27.9[16.7 µM] | 4.0 | C[C@H]1CN([C@@H](C)CO)C(=O)c2cc(-c3ccc(F)cc3)cnc2O[C@H]1CN(C)C(=O)c1ccc(F)cc1 |
| 18.2[16.7 µM] | 3.0 | CC(C)NC(=O)N[C@H]1CC[C@H](CCn2cc(-c3ccc(F)cc3)nn2)O[C@@H]1CO |
| -0.2 | 3.5 | C[C@@H]1CN([C@H](C)CO)C(=O)CCCn2nncc2CO[C@@H]1CN(C)C(=O)Nc1ccccc1 |
| 15.0[16.7 µM] | 8.2 | CCCC#Cc1ccc2c(c1)O[C@H](CN(C)C(=O)c1ccccc1)[C@H](C)CN([C@@H](C)CO)S2(=O)=O |
| 8.7[16.7 µM] | 0.0 | COc1cccc(S(=O)(=O)N(C)C[C@@H]2Oc3ncc(C#CCC(C)C)cc3C(=O)N([C@H](C)CO)C[C@@H]2C)c1 |
| 18.3[16.7 µM] | 19.1 | C[C@@H]1CN([C@H](C)CO)C(=O)c2cc(NC(=O)CCCN(C)C)ccc2O[C@H]1CN(C)S(=O)(=O)c1ccccc1 |
| 5.9[16.7 µM] | -8.3 | CNC[C@H]1OCCCC[C@H](C)Oc2ccc(NS(C)(=O)=O)cc2C(=O)N([C@@H](C)CO)C[C@@H]1C |
| -6.1[16.7 µM] | 9.4 | C[C@H]1CCCCO[C@H](CN(C)C(=O)Nc2ccccc2)[C@@H](C)CN([C@@H](C)CO)C(=O)c2cc(NS(=O)(=O)c3cn(C)cn3)ccc2O1 |
| 0.6[16.7 µM] | -16.5 | Cc1noc(C)c1S(=O)(=O)N(C)C[C@@H]1OCCCC[C@@H](C)Oc2ccc(NC(=O)Nc3ccc4c(c3)OCO4)cc2C(=O)N([C@@H](C)CO)C[C@@H]1C |
| 8.4[16.7 µM] | -8.4 | C[C@H]1CN([C@@H](C)CO)S(=O)(=O)c2ccc(-c3ccncc3)cc2O[C@H]1CN(C)C(=O)Nc1ccc(C(F)(F)F)cc1 |
| -22.0[16.7 µM] | -11.8 | C[C@H]1CN([C@@H](C)CO)C(=O)c2cc(C#CC3(O)CCCC3)cnc2O[C@H]1CN(C)S(C)(=O)=O |
| 10.5[16.7 µM] | 5.5 | COCC#Cc1cnc2c(c1)C(=O)N([C@@H](C)CO)C[C@H](C)[C@H](CN(C)C(=O)C1CCCCC1)O2 |
| 5.4[16.7 µM] | 20.5 | C[C@@H]1CCCCO[C@H](CN(C)C(=O)Nc2ccccc2)[C@H](C)CN([C@H](C)CO)C(=O)c2cc(NC(=O)c3ccncc3)ccc2O1 |
| 1.1[16.7 µM] | -0.6 | C[C@H]1CN([C@@H](C)CO)S(=O)(=O)c2ccc(C#CC3CC3)cc2O[C@H]1CN(C)Cc1ccccc1 |
| 12.9[16.7 µM] | 3.1 | C[C@H]1CN([C@@H](C)CO)C(=O)c2cc(NS(=O)(=O)c3ccc(F)cc3)ccc2O[C@H]1CN(C)S(=O)(=O)c1ccccc1 |
| -8.0[16.7 µM] | -11.1 | O=C(C[C@@H]1C[C@@H]2c3cc(NC(=O)Nc4ccccc4)ccc3O[C@@H]2[C@H](CO)O1)NCc1ccncc1 |
| 26.3[16.7 µM] | 1.6 | COc1ccc(NC(=O)N(C)C[C@@H]2Oc3ncc(/C=C/c4ccccc4)cc3C(=O)N([C@H](C)CO)C[C@@H]2C)cc1 |

Another view of some results above:
COCC#Cc1cnc2c(c1)C(=O)N([C@@H](C)CO)C[C@H](C)[C@H](CN(C)C(=O)C1CCCCC1)O2
  HIV Env fusion: 10.5[16.7 µM]
  UUG fidelity: 5.5

C[C@@H]1CCCCO[C@H](CN(C)C(=O)Nc2ccccc2)[C@H](C)CN([C@H](C)CO)C(=O)c2cc(NC(=O)c3ccncc3)ccc2O1
  HIV Env fusion: 5.4[16.7 µM]
  UUG fidelity: 20.5

C[C@H]1CN([C@@H](C)CO)S(=O)(=O)c2ccc(C#CC3CC3)cc2O[C@H]1CN(C)Cc1ccccc1
  HIV Env fusion: 1.1[16.7 µM]
  UUG fidelity: -0.6

Following part.
| HIV Env fusion | UUG fidelity | molecule |
| --- | --- | --- |
| -113.4[16.7 µM] | 3.3 | C[C@@H]1CN([C@H](C)CO)S(=O)(=O)c2ccc(C#CC3(O)CCCC3)cc2O[C@@H]1CN(C)C(=O)Cc1ccccc1 |
| 17.9[16.7 µM] | 10.4 | C[C@H]1CN([C@@H](C)CO)C(=O)c2cccc(NC(=O)Nc3ccccc3)c2O[C@H]1CN(C)S(=O)(=O)c1ccccc1 |
| -17.1[16.7 µM] | 4.5 | COc1ccc(S(=O)(=O)Nc2ccc3c(c2)C(=O)N([C@H](C)CO)C[C@@H](C)[C@H](CN(C)C(=O)CCC(F)(F)F)OCCCC[C@@H](C)O3)cc1 |
| -5.7[16.7 µM] | -6.9 | C[C@@H]1CN([C@H](C)CO)C(=O)Cc2cc(NC(=O)Nc3ccc(F)cc3)ccc2O[C@H]1CN(C)C(=O)NC1CCCCC1 |
| -4.2[16.7 µM] | -19.3 | C[C@@H]1CN([C@@H](C)CO)S(=O)(=O)c2ccc(-c3cccnc3)cc2O[C@H]1CN(C)Cc1cncnc1 |
| 6.9[16.7 µM] | 3.3 | CNC(=O)C[C@@H]1CC[C@@H]2[C@@H](COc3ccc(NC(=O)Cc4cccs4)cc3C(=O)N2C)O1 |
| -16.9[16.7 µM] | -15.5 | Cc1noc(C)c1NC(=O)N(C)C[C@@H]1Oc2ccc(NC(=O)Nc3ccc(F)cc3)cc2C(=O)N([C@@H](C)CO)C[C@@H]1C |
| -8.8[16.7 µM] | 25.7 | O=C(C[C@H]1C[C@H]2c3cc(NC(=O)c4ccc5c(c4)OCO5)ccc3O[C@H]2[C@H](CO)O1)NCC1CC1 |
| -10.8[16.7 µM] | -4.7 | C[C@@H]1CN([C@H](C)CO)C(=O)c2cc(C3=CCCCC3)cnc2O[C@H]1CN(C)Cc1cccnc1 |
| -14.5[16.7 µM] | -1.7 | CO[C@H]1CN(C)C(=O)c2cc(NC(=O)NC(C)C)ccc2OC[C@H](C)N(C(=O)NC(C)C)C[C@H]1C |
| 8.8[16.7 µM] | -11.7 | CCCNC(=O)N(C)C[C@H]1Oc2ncc(-c3ccc(F)cc3)cc2C(=O)N([C@@H](C)CO)C[C@H]1C |
| -0.6[16.7 µM] | 0.9 | CC(C)NC(=O)N(C)C[C@H]1Oc2ccc(NS(=O)(=O)c3ccccc3)cc2CC(=O)N([C@@H](C)CO)C[C@H]1C |
| -3.8[16.7 µM] | -2.3 | Cc1noc(C)c1S(=O)(=O)Nc1ccc2c(c1)CC(=O)N([C@@H](C)CO)C[C@H](C)[C@@H](CN(C)C(=O)NC1CCCCC1)O2 |
| 6.6[16.7 µM] | 13.0 | CCCNC(=O)N(C)C[C@@H]1Oc2cc(C#CCOC)ccc2S(=O)(=O)N([C@H](C)CO)C[C@H]1C |
| -13.1[16.7 µM] | 0.4 | Cc1ccc(S(=O)(=O)Nc2ccc3c(c2)C(=O)N([C@@H](C)CO)C[C@H](C)[C@H](CN(C)S(=O)(=O)c2ccc(C)cc2)OCCCC[C@H](C)O3)cc1 |
| -22.9[16.7 µM] | -10.7 | COc1ccccc1-c1cnc2c(c1)C(=O)N([C@@H](C)CO)C[C@H](C)[C@@H](CN(C)Cc1ccncc1)O2 |
| -14.4[16.7 µM] | 4.4 | C[C@@H]1CN([C@@H](C)CO)C(=O)c2cc(NC(=O)Nc3ccccc3)ccc2O[C@@H]1CN(C)S(=O)(=O)c1ccc(F)cc1 |
| -1.8[16.7 µM] | -0.2 | CN(C)CCCNC(=O)C[C@@H]1CC[C@H](NS(=O)(=O)c2ccccc2)[C@@H](CO)O1 |
| -15.2[16.7 µM] | -10.2 | N#C[C@@H]1[C@@H](c2ccc(C3=CCCCC3)cc2)[C@H](CO)N1C(=O)NC1CCCCC1 |
| -6.2[16.7 µM] | -11.2 | O=C(N[C@H]1CC[C@@H](CC(=O)N2CCN(c3ccccc3)CC2)O[C@H]1CO)c1ccncc1 |
| 8.6[16.7 µM] | 3.8 | C[C@H](CO)N1C[C@H](C)[C@@H](CN(C)Cc2ccccc2)OCCCC[C@H](C)Oc2ccc(NC(=O)Nc3ccc(C(F)(F)F)cc3)cc2C1=O |
| -19.9[16.7 µM] | -2.7 | C[C@@H]1CN([C@H](C)CO)C(=O)c2cccc(NS(=O)(=O)c3cn(C)cn3)c2O[C@H]1CN(C)Cc1ccc(Cl)c(Cl)c1 |
| 1.2[16.7 µM] | 5.6 | C[C@@H]1CN([C@@H](C)CO)C(=O)c2cc(-c3ccccc3)cnc2O[C@H]1CN(C)C(=O)c1cccnc1 |
| 6.7[16.7 µM] | 15.6 | C[C@@H]1CN([C@@H](C)CO)C(=O)Cc2cc(NC(=O)CCC(F)(F)F)ccc2O[C@@H]1CN(C)C(=O)Nc1ccccc1 |
| -19.2[16.7 µM] | 2.1 | C[C@H]1CN([C@@H](C)CO)C(=O)c2cc(C3=CCCC3)cnc2O[C@H]1CN(C)Cc1cccc(F)c1 |
| 1.5[16.7 µM] | 6.4 | COc1ccc(S(=O)(=O)Nc2ccc3c(c2)CC(=O)N([C@H](C)CO)C[C@H](C)[C@@H](CN(C)C(=O)NC2CCCCC2)O3)cc1 |
| 10.6[16.7 µM] | -24.7 | O=C(CC1CC1)N[C@H]1CC[C@H](CCNS(=O)(=O)c2ccc(Cl)cc2)O[C@@H]1CO |
| 5.0[16.7 µM] | 1.8 | CC(C)NC(=O)Nc1ccc2c(c1)CC(=O)N([C@H](C)CO)C[C@H](C)[C@@H](CN(C)CC1CCCCC1)O2 |
| 6.7[16.7 µM] | 4.8 | C[C@@H]1CN([C@@H](C)CO)C(=O)Cc2cc(NC(=O)Nc3ccc4c(c3)OCO4)ccc2O[C@H]1CN(C)CC1CC1 |
| -4.2[16.7 µM] | 9.9 | C[C@@H]1CCCCO[C@@H](CN(C)C(=O)c2ccncc2)[C@H](C)CN([C@H](C)CO)C(=O)c2cc(NS(=O)(=O)c3cccs3)ccc2O1 |
| 6.1[16.7 µM] | -11.9 | C[C@@H]1CN([C@H](C)CO)S(=O)(=O)c2ccc(-c3cccnc3)cc2O[C@@H]1CN(C)C |
| 2.2[16.7 µM] | 8.5 | CCC(=O)N(C)C[C@@H]1Oc2cc(C#CC3CCCC3)ccc2S(=O)(=O)N([C@H](C)CO)C[C@@H]1C |
| -23.7[16.7 µM] | -2.6 | C[C@@H]1CCCCO[C@@H](CN(C)S(=O)(=O)c2cccs2)[C@H](C)CN([C@H](C)CO)C(=O)c2cc(NS(C)(=O)=O)ccc2O1 |
| 10.8[16.7 µM] | -2.1 | O=C(C[C@@H]1C=C[C@@H](NC(=O)NC2CCCCC2)[C@@H](CO)O1)NCc1ccc(F)cc1 |
| 25.5[16.7 µM] | -14.2 | C[C@@H]1CN([C@@H](C)CO)C(=O)c2cccc(NC(=O)C3CCOCC3)c2O[C@H]1CN(C)S(C)(=O)=O |
| -4.1[16.7 µM] | 2.3 | COc1ccccc1CNC(=O)C[C@@H]1C=C[C@H](NC(=O)CC2CC2)[C@@H](CO)O1 |
| 22.2[16.7 µM] | 3.5 | COCC(=O)N(C)C[C@@H]1Oc2cc(Br)ccc2S(=O)(=O)N([C@H](C)CO)C[C@@H]1C |
| 31.2[16.7 µM] | 3.0 | COc1cccc(C#Cc2ccc3c(c2)O[C@@H](CN(C)C(=O)c2ccccn2)[C@@H](C)CN([C@@H](C)CO)S3(=O)=O)c1 |
| -24.8[16.7 µM] | -2.3 | COc1ccc(NC(=O)N(C)C[C@@H]2OCCCC[C@@H](C)Oc3ccc(NC(=O)Nc4ccc(F)cc4)cc3C(=O)N([C@@H](C)CO)C[C@@H]2C)cc1 |

Compound profiles (already shown). Values in the order: HIV Env fusion	UUG fidelity
`C[C@@H]1CCCCO[C@@H](CN(C)C(=O)c2ccncc2)[C@H](C)CN([C@H](C)CO)C(=O)c2cc(NS(=O)(=O)c3cccs3)ccc2O1` in the list: -4.2[16.7 µM]	9.9
`C[C@@H]1CN([C@@H](C)CO)C(=O)c2cccc(NC(=O)C3CCOCC3)c2O[C@H]1CN(C)S(C)(=O)=O` in the list: 25.5[16.7 µM]	-14.2
`CCC(=O)N(C)C[C@@H]1Oc2cc(C#CC3CCCC3)ccc2S(=O)(=O)N([C@H](C)CO)C[C@@H]1C` in the list: 2.2[16.7 µM]	8.5
`C[C@@H]1CCCCO[C@@H](CN(C)S(=O)(=O)c2cccs2)[C@H](C)CN([C@H](C)CO)C(=O)c2cc(NS(C)(=O)=O)ccc2O1` in the list: -23.7[16.7 µM]	-2.6
`CC(C)NC(=O)Nc1ccc2c(c1)CC(=O)N([C@H](C)CO)C[C@H](C)[C@@H](CN(C)CC1CCCCC1)O2` in the list: 5.0[16.7 µM]	1.8

Screening data from PubChem.
